Screening data as filed in PubChem BioAssay.
FPR ligand = binds the human formylpeptide receptor FPR; P21462; FPR-expressing cells, fluorescent ligand binding, flow cytometry; inhibition, %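 (tested at 6.7 µM)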; 24,000 compounds, 0.74% hits; AID 440;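 further: 0% = buffer wells and 100% = receptor blocker peptide wells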
Target sequence (P21462 whole entry, looked up): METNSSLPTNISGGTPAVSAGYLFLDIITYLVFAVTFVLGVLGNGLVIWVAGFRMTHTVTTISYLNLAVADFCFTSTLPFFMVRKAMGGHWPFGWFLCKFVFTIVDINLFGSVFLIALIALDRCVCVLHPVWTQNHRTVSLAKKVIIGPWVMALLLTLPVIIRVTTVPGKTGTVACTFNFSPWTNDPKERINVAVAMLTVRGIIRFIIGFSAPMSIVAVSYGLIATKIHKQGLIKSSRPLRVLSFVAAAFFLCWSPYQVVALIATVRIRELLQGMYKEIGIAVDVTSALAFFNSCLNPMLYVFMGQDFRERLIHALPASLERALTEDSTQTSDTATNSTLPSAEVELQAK
VCAM-1 up imaging = enhancers of VCAM-1 display on endothelial cells, imaging, high-content imaging, pooled HUVEC, TNFa stimulus (AID 457). 10,000 compounds, 0.2% hits. calls only. Pooled HUVEC, TNFa-induced VCAM-1 immunofluorescence imaging; hits of this screen are not shown here;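 active means a top-ranked rise in VCAM-1 staining upheld on image or statistical review; inactive means the rest, including candidates rejected on review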;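 further: compounds tested at 5 µM in the well; cells exposed to compound for 24 hours before fixing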
VCAM-1 inhibition = inhibitors of TNFa-induced VCAM-1 surface display, cell-based, plate reader, pooled HUVEC, TNFa stimulus (AID 454); HUVEC TNFa-induced VCAM-1 surface immunofluorescence, plate reader; numbers were filed only for top-ranked candidate wells; inhibition, % at 5 µM; 10,000 compounds, 0.2% hits;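 active means compound among top-ranked inhibitors of TNF-induced VCAM-1 adhesion protein staining, with the hit upheld by image or statistical review; inactive means the rest, including hits rejected on review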;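 further: 0% = TNFa with vehicle and 100% = cells without TNFa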
VCAM-1 down imaging = inhibitors of TNFa-induced VCAM-1 surface display, imaging, high-content imaging, pooled HUVEC, TNFa stimulus (AID 456); 10,000 compounds, 0.2% hits; one-dose inhibition, % at 5 µM; IC50 in µM for titrated hits; HUVEC TNFa-induced VCAM-1 surface expression, immunofluorescence imaging; numbers were filed only for top-ranked candidate wells;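 active means top tenth filtered wells with inhibition above zero that passed visual or statistical confirmation; inactive means the rest, including hits rejected on review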;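 further: 0% = stimulated vehicle wells and 100% = unstimulated cells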
FPRL1 ligand = human FPRL1 ligand, with FPR counter-screen | FPRL1-expressing cells, fluorescent ligand binding inhibition, flow cytometry | inhibition, %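 (tested at 6.7 µM)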 | 24,000 compounds, 0.3% hits;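 further: 0% = buffer alone and 100% = receptor blocker peptide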
Target sequence (P25090 whole entry, looked up): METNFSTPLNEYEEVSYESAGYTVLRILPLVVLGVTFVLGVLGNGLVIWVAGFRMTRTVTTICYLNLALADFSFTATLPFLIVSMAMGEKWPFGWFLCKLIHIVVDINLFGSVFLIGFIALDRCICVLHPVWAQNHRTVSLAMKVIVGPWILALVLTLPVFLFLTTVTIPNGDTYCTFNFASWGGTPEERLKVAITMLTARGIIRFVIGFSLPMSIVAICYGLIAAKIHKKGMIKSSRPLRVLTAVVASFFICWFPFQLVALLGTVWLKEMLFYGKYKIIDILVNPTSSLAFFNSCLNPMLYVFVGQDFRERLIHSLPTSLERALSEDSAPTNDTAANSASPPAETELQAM
* marks the source's active call; other numbers are inactive results; i = inactive; x = not tested or not shown.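 How the source made its calls, unless noted: active means mean above 30%; inconclusive means self-fluorescent; inactive means the rest.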 A portion of the library. The share of hits here may be higher or lower than overall.

SMILES	FPR ligand	VCAM-1 up imaging	VCAM-1 inhibition	VCAM-1 down imaging	FPRL1 ligand
CCOc1ccccc1-n1c(SCC(=O)NC2CCCC2)nnc1-c1ccoc1C	2	i	i	i	7
CCOC(=O)N1CCN(C(=O)c2ccc(CNS(=O)(=O)c3ccc(C)cc3)cc2)CC1	-2	x	x	x	0
CCN(CC)CCNC(=O)C1c2ccccc2C(=O)N(C)C1c1cn(C)c2ccccc12 (configuration not stated)	-1	x	x	x	9
Cc1nc2ccccc2n1CCC(=O)Nc1cccc(F)c1	1	i	i	i	0
COc1ccc(-c2nc(CSCC(=O)N3CCC(C(N)=O)CC3)c(C)o2)cc1OC	-4	x	x	x	-4
N#CCSCC(=O)Nc1ccc(F)cc1	1	i	i	i	-5
CCOC(=O)CN1C(=O)C(CC)Oc2ccccc21 (configuration not stated)	4	x	x	x	1
Nc1[nH]nc2nc(N3CCCC3)nc(-c3ccccc3)c12	3	i	i	i	-4
O=C(c1ccco1)N1CCN(CC(=O)N2CCCc3c2c(=O)oc2ccc(O)cc32)CC1	-3	x	x	x	5
CC(=O)N1CCc2ccc(C(=O)CN3CCN(c4cccc(C)c4C)CC3)cc21	-7	x	x	x	-4
Cc1ccc2[nH]c(=O)c(CN(CCCO)S(=O)(=O)c3c(C)ccc4nsnc34)cc2c1	-4	i	i	i	-1
CC(C)Oc1ccc(C(CC(=O)O)NC(=O)C2CCCCC2)cc1 (configuration not stated)	3	x	x	x	-1
Cc1cc(NS(=O)(=O)c2ccc(NC(=O)Nc3ccc4c(c3)OCO4)cc2)no1	0	i	i	i	1
CCCCCn1c(CN2CCN(c3cc(Cl)ccc3C)CC2)nc2c1c(=O)[nH]c(=O)n2C	-4	x	x	x	-6
C=C(C)CSc1nnc2[nH]c(=O)cc(N)n12	7	i	i	i	8
Cc1cccc(N(C)C(=S)Oc2ccc3ccccc3c2)c1	2	i	i	i	6
Cc1ccc(NC(=O)CSc2nnc(CSc3nc(C)cc(C)n3)n2Cc2ccco2)c(C)c1	-2	i	i	i	5
Cc1cccc(-n2ncc3c(NCCCn4ccnc4)ncnc32)c1	-11	i	i	i	-1
O=S(=O)(NC1=NCCC1)c1cccs1	-3	i	i	i	1
Cc1ccc(CCNC(=O)C2CCCN(c3nc4ccccc4o3)C2)cc1 (configuration not stated)	4	x	x	x	3
O=C(COc1ccc2ccccc2c1)N1CCCC1	7	i	i	i	2
Cc1cc2ccccc2n1CCNC(=O)C1CCCC1	-6	x	x	x	-5
Cc1ncoc1C(=O)Nc1ccccc1-c1ccccc1	2	x	x	x	-8
O=C(Nc1ccc2c(c1)OCO2)c1cccc2c1C(=O)N(Cc1cccnc1)C2	8	x	x	x	-5
CCC1Oc2ccccc2N(CC(=O)NCCCN2CCC(C)CC2)C1=O (configuration not stated)	-3	x	x	x	-1

Grouped by structure, the compounds so far containing an aryl thioether with sulfur outside any ring (3)
SMILES	FPR ligand	VCAM-1 up imaging	VCAM-1 inhibition	VCAM-1 down imaging	FPRL1 ligand
CCOc1ccccc1-n1c(SCC(=O)NC2CCCC2)nnc1-c1ccoc1C	2	i	i	i	7
C=C(C)CSc1nnc2[nH]c(=O)cc(N)n12	7	i	i	i	8
Cc1ccc(NC(=O)CSc2nnc(CSc3nc(C)cc(C)n3)n2Cc2ccco2)c(C)c1	-2	i	i	i	5

Continuation.
SMILES	FPR ligand	VCAM-1 up imaging	VCAM-1 inhibition	VCAM-1 down imaging	FPRL1 ligand
CC(C[N+](C)(C)C)OC(N)=O (configuration not stated)	3	i	i	i	-3
CCOC(=O)N1CCC(NC(=O)CCC(=O)N2CC(C)Oc3ccccc32)CC1 (configuration not stated)	-6	x	x	x	3
O=C(O)c1ccccc1S	-2	i	i	i	-4
O=C(CCCCCn1c(=O)[nH]c2ccccc2c1=O)N1CCN(Cc2ccc3c(c2)OCO3)CC1	0	x	x	x	1
CCOc1cc(C(=O)NCc2ccncc2)cc(OCC)c1OCC	-6	i	i	i	4
O=C(Nc1ccc2c(c1)OCO2)OCc1ccccc1	-12	i	i	i	-5
Cc1cc2ncn(S(=O)(=O)c3ccc(S(=O)(=O)N4CCOCC4)cc3)c2cc1C	0	i	i	i	2
Cc1ccc(S(=O)(=O)Cc2ccc(C(=O)NCc3ccc4c(c3)OCO4)o2)cc1	2	i	i	i	3
CC1=C(C(=O)N(C)Cc2ccccc2)C2(CCC(C)CC2)OC1=O (configuration not stated)	-6	x	x	x	2
Cc1ccc(NC2c3ncccc3C(=O)N2C2CCCCC2)cc1C (configuration not stated)	-2	i	i	i	4
COc1ccc(-n2ccsc2=S)cc1	-1	x	x	x	-9
COCCNC(=O)CSc1nc(-c2ccc(OC)c(OC)c2)cc(C(F)(F)F)n1	3	i	i	i	7
COc1ccccc1-n1c(CNC(=O)c2ccco2)nnc1SCC(=O)Nc1ccc(F)cc1	47*	x	x	x	3
COc1ccccc1OCCOc1ccccc1/C=N/n1cnnc1	0	i	i	i	-5
CCN(CCCNC(=O)CCCCn1c(=O)[nH]c2ccccc2c1=O)c1ccccc1	-2	x	x	x	0
O=C(Cc1ccccc1)N(c1ccc(F)cc1)C1C=CS(=O)(=O)C1 (configuration not stated)	3	x	x	x	-1
Cc1cccc(N2CCN(C(=O)Cn3nc(Cc4ccncc4)c4ccccc4c3=O)CC2)c1C	3	i	i	i	0
O=C(c1cc2ccccn2n1)N1CCCC1	8	x	x	x	10
Oc1ccccc1C1=Nc2nc3ccccc3n2C(c2ccccc2)C1 (configuration not stated)	4	i	i	i	-4
CCc1ccc(NC(=O)CCn2c(=O)oc3ccccc32)cc1	4	x	x	x	8
CCN1CCCC1CNC(=O)CSc1cc(=O)n(C)c2cc(Cl)ccc12 (configuration not stated)	3	x	x	x	1
Cn1c(=O)c2cc(S(=O)(=O)NC(C(=O)NCc3cccnc3)c3ccccc3)ccc2n(C)c1=O (configuration not stated)	-6	x	x	x	6
Cc1ccc(C)c(SCC(=O)Nc2nnc(-c3ccccc3)o2)c1	-1	i	i	i	-4
CCN1CCN(C(=O)C2CC(c3ccc(F)cc3)=NO2)CC1 (configuration not stated)	1	i	i	i	3
N#Cc1ccc(-c2csc(NC(=O)C3CC3)n2)cc1	0	i	i	i	4

Carrying on.
SMILES	FPR ligand	VCAM-1 up imaging	VCAM-1 inhibition	VCAM-1 down imaging	FPRL1 ligand
CCOC(=O)CNC(=O)CSc1ncnc2c1cnn2Cc1ccccc1	-1	i	i	i	-4
COc1ccc(NC(C)=O)cc1NC(=O)CN1CCN(C2c3ccccc3-c3ccccc32)CC1	2	x	x	x	8
O=C(Nc1ccccn1)N1CCOCC1	1	i	i	i	4
COc1ccccc1OCc1nc2ccccc2[nH]1	-1	i	i	i	-5
CCC(=O)OCCn1c(=O)c2cc3c(=O)n(CCOC(=O)CC)c(=O)c3cc2c1=O	0	i	i	i	2
CCC1CCCCN1CCCNC(=O)COc1cc(=O)n(C)c2ccccc12 (configuration not stated)	0	x	x	x	2
COC(=O)c1ccccc1NC(=O)C1CCCCC1C(=O)O (configuration not stated)	-3	i	i	i	-1
O=P1(O)C=C(c2ccccc2)NC(c2ccccc2)=C1	10	i	i	i	-1
O=C1c2ccncc2C(=O)N1CO	-4	x	x	x	4
Cc1noc(/C=C/N(C)C)c1S(=O)(=O)N1CCCC(C(=O)NCCC2=CCCCC2)C1 (configuration not stated)	1	i	i	i	-4
CCOC(=O)CSc1nc2ccccc2n1C(=O)OCC	-4	x	x	x	-8
COC(=O)c1ccc(Cn2cnc3c(cnn3-c3ccc(C)c(C)c3)c2=O)o1	3	x	x	x	8
O=C(CCn1c(=O)[nH]c2ccsc2c1=O)N1CCc2ccccc2C1	-10	x	x	x	1
CC(C)(C)NC(=O)COC(=O)c1snc(C(=O)NC2CCCCC2)c1N	8	i	i	i	2
CC1Cc2nc(SCC(=O)Nc3ccc(F)cc3F)n(C)c(=O)c2S1 (configuration not stated)	6	i	i	i	5
CN(C)c1ccc(NC(=O)c2ccc(COc3cccc(Cl)c3)o2)cc1	6	x	x	x	7
O=C(c1cnc2n(c1=O)CCS2)N(c1ccccc1)C1CCCCC1	3	x	x	x	-1
Cc1ccc(CN2C(=O)CCC2C(=O)NCCCN2CCCCC2C)cc1 (configuration not stated)	-4	x	x	x	-3
CCCCN(C(=O)c1ccc(Cl)cc1)C1CC2CCC(C1)N2C (configuration not stated)	-2	i	i	i	3
CC(C)(C)n1nc2c(c1NC(=O)c1ccc(S(=O)(=O)N3CCCC3)cc1)CS(=O)C2 (configuration not stated)	12	x	x	x	7
CCN(CC)CCCn1c(=S)[nH]c2cc(Cl)ccc2c1=O	0	i	i	70%	4
CCOC(=O)c1[nH]c2ccc(OC)cc2c1N=CN(C)C	-5	x	x	x	5
COc1ccc(-c2noc(CCCC(=O)O)n2)cc1	1	i	i	i	-5
Cn1cccc1Cc1nnc(SCC(=O)Nc2ccc3c(c2)OCCO3)n1-c1ccc(F)cc1	-2	x	x	x	3
Cc1csc(SCC(=O)NC(=O)NCc2ccccc2)n1	5	i	i	i	0

Some of these compounds in order of SMILES length, low to high.
SMILES	FPR ligand	VCAM-1 up imaging	VCAM-1 inhibition	VCAM-1 down imaging	FPRL1 ligand
Cc1csc(SCC(=O)NC(=O)NCc2ccccc2)n1	5	i	i	i	0
O=P1(O)C=C(c2ccccc2)NC(c2ccccc2)=C1	10	i	i	i	-1
CN(C)c1ccc(NC(=O)c2ccc(COc3cccc(Cl)c3)o2)cc1	6	x	x	x	7
COC(=O)c1ccc(Cn2cnc3c(cnn3-c3ccc(C)c(C)c3)c2=O)o1	3	x	x	x	8

Records listed above marked active in FPR ligand.
SMILES | FPR ligand | VCAM-1 up imaging | VCAM-1 inhibition | VCAM-1 down imaging
COc1ccccc1-n1c(CNC(=O)c2ccco2)nnc1SCC(=O)Nc1ccc(F)cc1 | 47* | x | x | x

Next part:
SMILES	FPR ligand	VCAM-1 up imaging	VCAM-1 inhibition	VCAM-1 down imaging	FPRL1 ligand
CN(C)C(=O)N1CCC(C(=O)NCc2ccccc2Cl)CC1	5	x	x	x	2
CCC(=O)N1CCc2cc(S(=O)(=O)NCCC(=O)N3CCc4ccccc4C3)ccc21	6	x	x	x	4
Cc1cc(C(=O)Nc2nnc(C(F)(F)F)s2)no1	2	i	i	i	-2
S=C1SCN(Cc2ccccn2)CN1Cc1ccco1	-3	x	x	x	1
O=C(Cn1c(=O)n(CC2CCCO2)c(=O)c2ccccc21)N1CCN(c2ccccc2)CC1 (configuration not stated)	5	x	x	x	5
CC(C)CCNC(=O)NC(=O)CSc1nnc(-c2ccccc2F)n1N	-5	i	i	i	4
NC(=O)CC12CC3CC(C1)CC(CC(N)=O)(C3)C2	1	x	x	x	3
FC(F)Oc1cccc2cccnc12	9	i	i	i	1
O=S(=O)(NCc1ccc2c(c1)OCO2)c1cnc[nH]1	-8	x	x	x	-1
CC1(c2ccncc2)Nc2ccccc2-c2nc3ccccc3n21 (configuration not stated)	0	i	i	i	2
CCOC(=O)C1CCN(C(=O)c2c(-c3c(F)cccc3Cl)noc2C)CC1	-5	x	x	x	1
CN1C(=O)/C(=C2\SC(=S)N(C(CCC(=O)O)C(=O)O)C2=O)c2ccccc21 (configuration not stated)	26	x	x	x	30
Cc1c(C(=O)O)nn(-c2ccccc2)c(=O)c1C#N	-7	x	x	x	-2
CCOc1cccc(C2c3c(oc4cc(C)c(C)cc4c3=O)C(=O)N2CCCN(C)C)c1 (configuration not stated)	-4	x	x	x	-7
COc1ccc(NC(=O)c2oc3ccccc3c2NC(=O)c2ccc(OC)c(OC)c2)c(OC)c1	7	x	x	x	6
CC(C)=CCC(C)(C)C1OCCN1C(=O)c1ccccc1 (configuration not stated)	3	i	i	i	-3
c1ccc(-c2nn3c(Cn4nnc5ccccc54)nnc3s2)nc1	-2	i	i	i	-4
CN(C)S(=O)(=O)N1CCN(S(=O)(=O)c2ccc(F)cc2)CC1	-7	i	i	i	4
CCCNC(=O)C1=C(C)C(=O)OC12CCC(C)CC2 (configuration not stated)	11	i	i	i	5
CCCNC(=O)c1[nH]c(C)c(C(C)=O)c1C	-4	x	x	x	-3
Cc1[nH]nc2nc3c(c(OC(=O)c4ccccc4)c12)c(=O)n(C)c(=O)n3C	5	x	x	x	1
CC(C)C1N=C2c3ccccc3N=C(SCC(=O)c3ccc(O)c(O)c3)N2C1=O (configuration not stated)	17	x	x	x	-4
O=C(O)C1C2CCC(O2)C1C(=O)NCCC1=CCCCC1 (configuration not stated)	0	i	i	i	0
COc1cccc(Cn2c(OCC3CCCO3)nc3c2c(=O)n(C)c(=O)n3C)c1 (configuration not stated)	2	i	i	i	4

Whole records, quoted from the list. Values in the order: FPR ligand, VCAM-1 up imaging, VCAM-1 inhibition, VCAM-1 down imaging, FPRL1 ligand
Results for `NC(=O)CC12CC3CC(C1)CC(CC(N)=O)(C3)C2` : 1, x, x, x, 3
Results for `CCCNC(=O)C1=C(C)C(=O)OC12CCC(C)CC2` (configuration not stated) : 11, i, i, i, 5
